Source: PubChem (Southern Research Institute)
Mtb H37Rv: Mycobacterium tuberculosis H37Rv growth inhibition, putative kinase inhibitor library, confirmatory dose response (AID 2842); M. tuberculosis H37Rv growth inhibition; higher % means a stronger effect; some inactives read as strong as hits; inhibition, % at 10 µg/mL; hits with a dose series show IC90 in µg/mL; 24,000 tested, 5.2% active;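 active = confirmed in a dose series; about a fifth of its hits are not listed in these tables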;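 note: bacteria incubated one week before Alamar blue readout; 0% = bacteria only wells and 100% = bacteria with high antibiotic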
The depositor's hits bear a star.

SMILES | Mtb H37Rv
O=c1[nH]c2ccc(Cl)cc2c(-c2ccccc2)c1N1CCOCC1 | -7.3%
Cn1c(=O)[nH]c(=O)c2c1nc(N1CCN(Cc3c(F)cccc3Cl)CC1)n2Cc1ccccc1 | -10.2%
CN1C(=O)c2cccc(NC(=O)c3ccc(Cl)cc3Cl)c2C1=O | -9.9%
Fc1ccc(-c2nnc3c4cc5c(cc4n(Cc4ccc(Cl)cc4)cc2-3)OCO5)cc1 | 10.6%
CS(=O)(=O)Nc1cc(N=NC(=O)c2ccccc2)c(O)c2ccccc12 | 8.5%
CCCCC(=O)NCCc1cc2ccc(OC)cc2[nH]c1=O | 3.1%
Cc1ccc(-c2nc(SCC(=O)N3CCCc4ccccc43)c3c(=O)n(C)c(=O)n(C)c3n2)cc1 | 2.9%
COc1ccc(NC(=O)CSc2ncnc3c2nnn3Cc2ccc(F)cc2)cc1OC | 0.3%
CCOC(=O)c1ccc(Nc2[nH]c(=O)c3ccccc3c2C(=O)c2ccncc2)cc1 | 51.6%
COc1ccccc1NC(=O)C(=O)Nc1cc2c3c(c1)CCN3C(=O)CC2 | 13.3%
Cc1ccc2cc(CCNC(=O)CCc3ccccc3)c(=O)[nH]c2c1C | 2.4%
CN(C)c1ccc(/C=C(/C#N)c2nc(-c3ccc4c(c3)OCO4)cs2)cc1 | 3.6%
O=C(CSc1ccc(Cl)cc1)Nc1nnc(-c2ccc(F)cc2)s1 | 12.3%
O=C(CSc1nnc(CNC(=O)c2ccccc2)o1)NCc1ccc2c(c1)OCO2 | -7.5%
CCC(=O)NCCc1cc2ccc(C)c(C)c2[nH]c1=O | -7.1%

Next part; the last 6 above are carried over.
SMILES | Mtb H37Rv
COc1ccccc1NC(=O)C(=O)Nc1cc2c3c(c1)CCN3C(=O)CC2 | 13.3%
Cc1ccc2cc(CCNC(=O)CCc3ccccc3)c(=O)[nH]c2c1C | 2.4%
CN(C)c1ccc(/C=C(/C#N)c2nc(-c3ccc4c(c3)OCO4)cs2)cc1 | 3.6%
O=C(CSc1ccc(Cl)cc1)Nc1nnc(-c2ccc(F)cc2)s1 | 12.3%
O=C(CSc1nnc(CNC(=O)c2ccccc2)o1)NCc1ccc2c(c1)OCO2 | -7.5%
CCC(=O)NCCc1cc2ccc(C)c(C)c2[nH]c1=O | -7.1%
Cc1cc(NC(=O)c2ccc(Br)cc2)nc2c1c(=O)oc1ccccc12 | 1.7%
Cc1cccc(CC(=O)Nc2c(C(=O)Nc3ccccc3)oc3ccccc23)c1 | -0.9%
CCOc1ccc(N2C(=O)S/C(=C\C=C\c3ccco3)C2=O)cc1 | -10.0%
Cc1ccc(C)c2[nH]c(=O)c(CCNC(=O)c3cccc(F)c3)cc12 | 7.4%
Cc1nnc(NC(=O)CSCc2ccccc2)s1 | -0.5%
Cn1c(=O)[nH]c(=O)c2c1nc(SCC(N)=O)n2CC(O)COc1ccc(Cl)cc1 (stereo not given) | -5.2%
CNC(=O)C(=O)Nc1cc2c3c(c1)CCC(=O)N3CCC2 | 0.1%
COc1cccc(Cn2cc(S(=O)(=O)c3ccc(C)cc3)c(=O)c3cc(OC)c(OC)cc32)c1 | 1.0%
CCOc1ccccc1C(=O)Nc1ccc(Cl)cc1[N+](=O)[O-] | 7.9%
O=C1CCc2cc(S(=O)(=O)Nc3ccc4c(c3)OCO4)cc3c2N1CC3 | -8.9%
O=C(CCn1c(=O)oc2ccccc21)Nc1nccs1 | 12.2%
O=c1[nH]cc(S(=O)(=O)Nc2ccc(Cl)cc2)c(=O)[nH]1 | -4.7%
Cc1ccc2cc(CCNC(=O)c3cccs3)c(=O)[nH]c2c1 | 1.7%
NC(=O)c1c(NC(=O)c2ccc([N+](=O)[O-])s2)sc2c1CCN(Cc1ccccc1)C2 | 0.46µg/mL*
CCOc1ccccc1NC(=O)c1oc2ccccc2c1NC(=O)c1ccccc1Br | -10.2%

3 compounds drawn at random from those above:
SMILES | Mtb H37Rv
CCOc1ccccc1C(=O)Nc1ccc(Cl)cc1[N+](=O)[O-] | 7.9%
O=c1[nH]cc(S(=O)(=O)Nc2ccc(Cl)cc2)c(=O)[nH]1 | -4.7%
Cc1ccc2cc(CCNC(=O)c3cccs3)c(=O)[nH]c2c1 | 1.7%

(listing goes on)
SMILES | Mtb H37Rv
CC(=O)c1ccc(C(=O)Nc2c(C(N)=O)oc3ccccc23)cc1 | 4.5%
CC1=C(C(=O)Nc2ccc(C)cc2)C(c2ccc(N(C)C)cc2)NC(=O)N1 (stereo not given) | 7.0%
CCC(Sc1nc(N)c(NC(=O)c2ccco2)c(=O)[nH]1)C(=O)O (stereo not given) | -1.8%
COc1ccc(/C=N\Nc2cn[nH]c(=O)c2Cl)c(OC)c1 | -2.6%
Cc1ccc2nc(NCc3ccccc3)c(C=NCc3cccnc3)c(=O)n2c1 | 2.0%
O=C(Nc1ccc(N2CCCCS2(=O)=O)cc1)c1ccccc1 | 0.1%
COc1ccc(NC(=O)c2cc3cc(Cl)ccc3oc2=O)c(OC)c1 | 0.0%
COc1ccc(N2CC(NC(=O)NC3CC(C)CC(C)(C)C3)CC2=O)cc1OC (stereo not given) | -2.4%
COc1ccc(NC(=O)COC(=O)c2ccc3c(c2)C(=O)N(c2cccc(C)c2C)C3=O)cc1 | -2.0%
CCOCCSc1nc2c(c(=O)[nH]c(=O)n2C)n1CCC(C)C | 5.9%
O=C1CCc2cc(S(=O)(=O)Nc3ccc(Cl)cc3Cl)cc3c2N1CCC3 | -11.1%
CCOC(=O)CSc1nc2c(c(=O)[nH]c(=O)n2C)n1Cc1ccccc1Cl | 4.0%
CC(=O)c1sc(NC(=O)c2ccccc2F)nc1C | 3.2%
Cc1cccc(CSc2nc(-c3cccs3)nc3c2c(=O)n(C)c(=O)n3C)c1 | 10.2%
Cc1ccc(NC(=O)CC2CCS(=O)(=O)C2)cc1 (stereo not given) | -6.8%
CC1C(=O)N2CCCc3cc(NC(=O)C(=O)NCc4ccncc4)cc1c32 (stereo not given) | 2.5%
Cn1c(=O)c2c(SCC(=O)Nc3ccccc3F)nc(-c3cccs3)nc2n(C)c1=O | -8.0%
CCOC(=O)N1CCN(C(=O)CSc2nnc(Cc3cc(=O)[nH]c(=O)[nH]3)n2-c2ccccc2)CC1 | -9.9%
CCOc1ccnc2c1c(=O)n(Cc1cccnc1)c(=O)n2C | 0.2%
Cc1cc(NC(=O)c2ccccc2Br)nc2c1c(=O)oc1ccccc12 | -3.8%
COc1ccc(OC)c(-n2c(CNC(=O)c3ccco3)nnc2SCC(=O)Nc2nnc(C)s2)c1 | -8.0%
O=C(Nc1cc2c3c(c1)CCN3C(=O)CC2)c1ccc2ccccc2c1 | -0.8%
NC(=O)c1c(NC(=O)c2ccc(Cl)s2)sc2c1CCN(Cc1ccccc1)C2 | -5.1%
O=C(NCc1ccco1)c1cnc2sccn2c1=O | -6.5%
O=C(Nc1c(C(=O)Nc2ccc(OC(F)(F)F)cc2)oc2ccccc12)c1cccc(Cl)c1 | 32.4%
O=C(CCn1c(=S)[nH]c2cc3c(cc2c1=O)OCO3)NCCc1ccc(Cl)cc1 | -7.3%
Cc1ccc(N2CC(NS(=O)(=O)c3cccnc3)CC2=O)cc1 (stereo not given) | -4.1%
COc1ccc(C)c2sc(N3CCN(c4ccccc4)CC3)nc12 | 0.9%
COc1ccc(C2CC(c3cccs3)=NN2C(=O)CSc2nc3c(cnn3-c3ccc(S(N)(=O)=O)cc3)c(=O)[nH]2)cc1 (stereo not given) | 33.2%
CC(C(=O)Nc1ccccn1)c1ccccc1 (stereo not given) | -3.4%
O=C(Nc1ccc2c(c1)OCO2)NC1CC(=O)N(c2ccc3c(c2)OCCO3)C1 (stereo not given) | 11.6%
CCOc1ccccc1-n1c(=O)[nH]c2c(C(N)=O)nc(-c3ccccc3Cl)nc21 | 13.4%
COc1ccc(NC(=O)CSc2ccc3nnc(CCNC(=O)c4ccc(F)cc4)n3n2)cc1 | -1.4%
Cc1cc(=O)[nH]c2ccc(S(=O)(=O)Nc3cc(Cl)ccc3Cl)cc12 | 9.5%
O=C(COc1ccc(Cl)cc1)Nc1nc(-c2ccc(-c3ccccc3)cc2)cs1 | 11.7%
COc1ccc2nc(Nc3nc(-c4ccncc4)cs3)sc2c1 | 37.8%
O=C(CC1Nc2cccc3cccc(c23)NC1=O)Nc1ccccc1 (stereo not given) | 13.3%
C=CCn1c(=O)c2c(nc(N/N=C/c3cccc(OC)c3)n2C)n(C)c1=O | -5.1%
COc1ccccc1NC(=O)c1cnc2scc(C)n2c1=O | 2.9%
CC1=C(C(=O)OC(C)C)C(c2cccnc2)C2=C(CC(C)(C)CC2=O)N1 (stereo not given) | 4.9%
CC1CC(C)CN(c2oc(COc3ccc(Br)cc3)nc2C#N)C1 (stereo not given) | -2.8%
CC(=O)c1ccc(NC(=O)CSc2nnc3[nH]c(=O)ccn23)cc1 | -10.0%
Cc1ccc(Nc2nc(Nc3ccc(F)cc3)nc3nccnc23)cc1Cl | -3.3%
CCOc1cc(C(=O)Nc2sc3c(c2C(N)=O)CCN(C(C)=O)C3)cc(OCC)c1OCC | 12.3%
Cc1cccc(Cn2c(SCCN3CCCCC3)nc3c2c(=O)[nH]c(=O)n3C)c1 | -8.0%
O=C(Oc1ccc2c(=O)c(Oc3ccc4ccccc4c3)coc2c1)c1ccco1 | -7.8%
CCN(CC)c1ccc(/C=C(\C#N)c2nc3ccccc3c(=O)[nH]2)cc1 | -0.1%
O=C(CSc1nnc(Cc2cc(=O)[nH]c(=O)[nH]2)n1-c1ccc(F)cc1)Nc1ccc([N+](=O)[O-])cc1 | -6.5%
CC(C)c1ccccc1NC(=O)CN1C(=O)C(=O)c2ccccc21 | -9.0%
O=C(CSc1ncnc2ccccc12)Nc1nc2ccccc2s1 | -8.3%
Cc1cn2c3c(=O)n(C)c(=O)n(C)c3nc2n1Cc1ccccc1Cl | -0.2%
COc1ccccc1-c1ccc(SCC(=O)Nc2ccc3c(c2)OCCO3)nn1 | 4.1%
Cc1cccc(-c2nnc(NC(=O)c3ccc(S(=O)(=O)N(C)C)cc3)s2)c1 | 6.1%
CCOC(=O)COc1cccc2c1CCN(Cc1ccc(Br)cc1)C2=O | 77.6%
CC(=O)N1CCN(C2=NC(=O)/C(=C\c3ccc(O)c([N+](=O)[O-])c3)S2)CC1 | -17.1%
CCOc1ccc(-c2nnc3ccc(SCC(=O)Nc4cccc(NC(C)=O)c4)nn23)cc1 | -8.8%
COc1ccc(OC)c(NC(=S)NC(C)C(c2cccs2)N2CCOCC2)c1 (stereo not given) | -12.6%
O=C(CCSc1ccccc1)Nc1nnc(-c2cccs2)o1 | 7.87µg/mL*
CCN1C(=O)NC(c2ccccc2F)C(C(=O)OC)=C1C (stereo not given) | 9.6%
O=c1cnnc(N/N=C/c2ccc(Cl)cc2)[nH]1 | 1.0%
The list continues.
SMILES | Mtb H37Rv
COc1ccc(CC(=O)Nc2cc(C)on2)cc1OC | -5.2%
O=C(CCCCCN1C(=O)c2ccccc2C1=O)Nc1cccc(O)c1 | -11.9%
C=CCSc1nc2c(c(=O)[nH]1)C(c1ccncc1)C1=C(CC(C)(C)CC1=O)N2 (stereo not given) | -3.7%
COc1cccc(Cn2cc3c(-c4ccccc4)nnc-3c3cc(OC)c(OC)cc32)c1 | 1.8%
O=C(O)/C=C/c1ccc(S(=O)(=O)NCc2ccco2)cc1 | 9.5%
COc1ccc(S(=O)(=O)N2CCC(C(N)=O)CC2)cc1 | -6.8%
CCCn1c(=S)[nH]c2cc(C(=O)NCc3ccccc3)ccc2c1=O | 10.1%
CCOC(=O)c1ccc(NC(=O)CSc2nc3[nH]ncc3c(=O)[nH]2)cc1 | 78.6%
COc1ccc(-c2nnc(NC(=O)CN3C(=O)c4ccccc4C3=O)o2)cc1 | -3.9%
Cc1ccc(C)c(-c2nnc(NC(=O)c3ccc(S(=O)(=O)N4CCCCC4)cc3)o2)c1 | -5.2%
O=C(CCCOc1ccc(Cl)cc1Cl)N=Nc1c(O)[nH]c2ccccc12 | 13.4%
CCCCC(=O)Nc1c(C(=O)Nc2cccc(F)c2)oc2ccccc12 | -3.2%
COc1ccc(Cl)cc1C(=O)Nc1nnc(-c2ccccc2Cl)s1 | -5.5%
COc1ccc(Cl)cc1NC(=O)CSc1nc2c(c(=O)n1-c1ccccc1)SCC2 | 2.6%
CC1=NN(Cc2ccc(C)cc2)c2nc3c(c(=O)n(C)c(=O)n3C)n2C1 | -21.2%
O=C(NC1CCCC1)C(=O)c1c[nH]c2ccccc12 | 22.1%
CCOc1ccc(-c2csc(NC(=O)c3ccc([N+](=O)[O-])s3)n2)cc1 | 2.5%
CCCNC(=O)CSc1nnc2[nH]c(=O)cc(CCC)n12 | -2.3%
CC(C)N1CCc2c(sc(NC(=O)c3nc4ccccc4s3)c2C#N)C1 | 1.3%
CCOC(=O)c1nn(-c2ccc(F)cc2)c(=O)c2c(NC(=O)c3ccc(OC)c(OC)c3)scc12 | 1.6%
CCOc1ccc(NC(=O)CCn2c(=S)[nH]c3ccccc3c2=O)cc1 | -8.6%
CC(=O)Cn1cnc2c(cnn2-c2cccc(Cl)c2)c1=O | -10.7%
CC(C)Oc1ccc(C(=O)Nc2cccc3c2C(=O)c2ccccc2C3=O)cc1 | -8.0%
CCC(C)Nc1nc2c(c(=O)[nH]c(=O)n2C)n1CC (stereo not given) | 2.6%
COCCn1c(SCC(=O)Nc2ccccc2C)nc2c(oc3ccccc32)c1=O | -11.1%
Cc1ccc2nc(NC(=O)CSc3ccc4nnc(-c5cccc(F)c5)n4n3)sc2c1 | -0.3%
COc1ccc(S(=O)(=O)Nc2ccc3c(c2)C(=O)Nc2ccccc2O3)c(OC)c1 | -2.4%
CCOC(=O)N1CCN(C(c2ccc(F)cc2)c2sc3nc(C)nn3c2O)CC1 (stereo not given) | 1.1%
O=C(c1ccccc1Br)N(Cc1ccccc1)c1nnc(C23CC4CC(CC(C4)C2)C3)s1 | 6.7%
Cc1ccccc1CSc1ncc(C(=O)Nc2ccc(F)cc2)c(=O)n1C | 0.0%
COc1ccc2sc(Nc3ccccc3OC)nc2c1 | 3.6%
Cc1cc(NC(=O)CC(C)(C)C)nc2c1c(=O)oc1ccccc12 | 3.9%

Not all compounds are listed; rates above refer to the full screens.
